# High-throughput results as filed in PubChem.
# Rango-impB inh – Rango-importin beta binding inhibition; Rango CFP/YFP FRET sensor + importin beta, 45 min; Potency, µM (top dose mostly 92.2 µM), for the others: at the highest dose inhibition of complex formation; 0.031% of 340,000 active; active = rising FRET ratio curve, often small or poorly fitted; inconclusive = mostly compound fluorescence or quenching in the first reads; inactive = flat curves in all reads;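 further: potency means the concentration at half of the fitted maximal effect; 0% = DMSO wells and 100% = buffer wells lacking importin beta; nearly all actives have a fitted effect of over 15% in size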
# Target sequence (Q14974 whole entry, looked up): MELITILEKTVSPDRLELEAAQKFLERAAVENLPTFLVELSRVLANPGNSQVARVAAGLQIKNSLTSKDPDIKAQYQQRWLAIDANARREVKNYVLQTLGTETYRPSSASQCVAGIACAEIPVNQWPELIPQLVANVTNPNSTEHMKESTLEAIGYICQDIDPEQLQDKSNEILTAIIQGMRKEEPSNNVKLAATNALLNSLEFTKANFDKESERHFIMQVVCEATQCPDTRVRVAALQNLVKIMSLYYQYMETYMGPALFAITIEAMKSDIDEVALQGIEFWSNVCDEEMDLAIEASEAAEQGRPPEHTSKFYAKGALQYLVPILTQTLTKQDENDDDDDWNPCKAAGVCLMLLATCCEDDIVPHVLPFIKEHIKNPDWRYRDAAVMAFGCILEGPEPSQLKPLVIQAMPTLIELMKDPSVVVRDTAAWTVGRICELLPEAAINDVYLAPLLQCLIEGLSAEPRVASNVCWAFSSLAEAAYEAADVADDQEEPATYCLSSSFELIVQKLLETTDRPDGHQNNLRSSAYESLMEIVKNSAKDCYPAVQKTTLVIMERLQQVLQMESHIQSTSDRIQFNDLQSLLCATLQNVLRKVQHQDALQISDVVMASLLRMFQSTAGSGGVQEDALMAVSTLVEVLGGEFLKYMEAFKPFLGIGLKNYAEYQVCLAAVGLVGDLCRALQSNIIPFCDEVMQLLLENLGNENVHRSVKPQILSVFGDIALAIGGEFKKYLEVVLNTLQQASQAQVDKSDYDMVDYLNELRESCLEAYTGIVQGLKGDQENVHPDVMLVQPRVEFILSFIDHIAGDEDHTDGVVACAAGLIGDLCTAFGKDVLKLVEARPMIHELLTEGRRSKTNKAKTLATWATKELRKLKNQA
#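 FRET biosensor (snurportin 1 IBB flanked by EYFP and cerulean), 50 nM, with compound 5 min, then 0.125 microM importin beta in PBS, 1 mM DTT, 0.02% Tween-20, 0.1% BSA. CFP/YFP ratio read after 45 min at room temperature; pre-read flags interference.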
# GLA inh pH 4.5 – inhibitors of human alpha-galactosidase A at pH 4.5; purified enzyme, 4-MU-alpha-Gal fluorescence, pH 4.5; activity change, negative = inhibition, % at 105 µM; AID 1467; 230,000 tested, under 10 active; inconclusive = small, poorly fitted or top-dose-only inhibition, or a rising curve; inactive = flat fitted curve, though single readings scatter; no compound was filed as active;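 further: 0% = full activity with enzyme and -100% = basal without enzyme; dose as in the result columns while the protocol names 77 µM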
# miR-21 reporter – miR-21 reporter, rising signal. HeLa miR-21 FLuc reporter, luciferase, 48 h. Potency, µM (highest dose often 38.3 µM), for the others: at the top dose reporter change, positive = more light. 340,000 tested, under 10 active; active = well fitted rising curve with a large enough effect; inconclusive = small, poorly fitted or top-dose-only effect; inactive = no such curve, though single readings can be large or run the other way;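 further: % of control where 0% means no effect; miR-21 action dims this reporter so a rising signal means less miR-21 action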
#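 Luminescence from a firefly luciferase reporter carrying a miR-21 binding site downstream, stably expressed under a CMV promoter in HeLa cells that make miR-21 endogenously, reports miRNA modulation after 48 h compound exposure up to approximately 40uM final.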
# Rango release inh – inhibition of RanGTP-driven Rango-importin beta dissociation. Potency, µM (highest dose often 46.1 µM), inactives show top-dose activity change, negative = inhibition. 0.071% of 340,000 active. O95149+P62826. Biochemical FRET Rango-importin beta, RanGTP-induced dissociation. AID 540253; active means falling FRET ratio curve, often poorly fitted, with flat reads before Ran was added; inconclusive means other falling curves, or compound fluorescence or quenching; inactive means flat or rising ratio curve;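 further: potency means the concentration at half of the fitted maximal effect; % of control where 0% means no effect; nearly all actives have a fitted effect of over 45% in size; -100% = wells without RanGTP and RCC1; the record marks most hits as doubtful in a second field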
#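 Rango FRET biosensor (snurportin-1 IBB flanked by N-terminal EYFP and C-terminal CFP10) at 0.1 uM, with 0.25 uM importin beta in PBS, 1mM DTT, 0.02% Tween-20, 0.1% BSA. 0.6 uM Ran, 2mM GTP and 0.2 uM RCC1 were then added for 45 min at room temperature. Inhibition read as loss of FRET rise.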
# Active calls of the source: *; ? = inconclusive; . = not tested or not shown; & = joins results of further samples; [ ] = dose if it differs, or a comment.
SMILES,Rango-impB inh,GLA inh pH 4.5,miR-21 reporter,Rango release inh
Cc1ccccc1OCC(=O)NNC(=O)CCc1ccccc1,2.0%,6,2%,?
COc1ccccc1/C=C1\Oc2cc(OC(=O)N3CCOCC3)ccc2C1=O,2.2%,-14,0%,?
CCOC(=O)c1ccc(NC(=O)C2CC(O)CN2S(=O)(=O)c2ccc(C)cc2)cc1 (stereo not given),-5.8%,.,.,8%
CCCCOc1ccc(C2/C(=C(/O)c3ccc4c(c3)CC(C)O4)C(=O)C(=O)N2CCCN2CCOCC2)cc1OC (stereo not given),7.2%,.,-11%,13%
O=C(COC(=O)c1cc2c(s1)CCCC2)Nc1ccc(Cl)cn1,-3.7%,2,3%,-20%
CCOC(=O)/C(C#N)=C/c1ccc(SC)cc1,2.6%,7,5%,5%
CCOc1cccc(C2C(C#N)=C(N)Oc3cc(C)oc(=O)c32)c1OCC (stereo not given),-2.2%,15,-1%,-6%
CNC(=S)N/N=C(\C)c1ccc(Cl)s1,0.9%,3,-6%,32%
CCOC(=O)N1CCN(C(=O)COc2ccccc2Cl)CC1,-1.6%,-3,-15%,-2%
C=CCn1c(SCc2csc(C)n2)nc2sc3c(c2c1=O)CCCC3,-1.2%,-2,14%,12%
CN(Cc1ccccc1)S(=O)(=O)c1cccc(C(=O)O)c1,1.4%,-6,0%,-1%
CC(C)C(=O)Nc1cccc(-c2cnc3ccccc3n2)c1,3.6%,-1,-41%,-6%
CCc1ccc(NC(=O)N(C2CCC(C)CC2)C2CCN(C(C)=O)CC2)cc1 (stereo not given),-0.8%,-4,-33%,-1%
Cc1nnc(SCC(=O)N2CCN(c3ccccc3)CC2)n(N)c1=O,0.2%,2,4%,-1%
Cc1ccccc1CC(=O)NC1CCCCCC1,3.6%,.,1%,-14%
Cc1ccccc1CC1(CO)CCCN(C(=O)CCN2CCCO2)C1 (stereo not given),-1.2%,.,-20%,7%
CCCn1nnnc1SCC(=O)NCc1ccc(OC)cc1,0.3%,-3,3%,5%
CC(=O)Nc1ccc(NC(=O)C(C)OC(=O)CCc2c[nH]c3ccccc23)cc1 (stereo not given),0.3%,.,.,18%
CC1=C(C(=O)Nc2cc(C(=O)N3CCC(C)CC3)ccc2C)SCCO1,-1.8%,.,-10%,16%
CCOC(=O)N1CCN(C(=O)c2cn(CC)c3ccc(S(=O)(=O)N4CC(C)CC(C)C4)cc3c2=O)CC1 (stereo not given),4.0%,-6,4%,-12%
O=c1[nH]c2ccsc2c(=O)n1-c1ccc(F)c(Cl)c1,-1.4%,1,-2%,-4%
CN(CC(=O)N1CCc2ccccc21)S(=O)(=O)c1ccc(Br)s1,-0.4%,-10,-23%,1%
COc1cccc2c1C(=O)c1c(O)c3c(c(O)c1C2=O)CC(O)(C(=O)CO)CC3OC1CC(N(C)C)C(O)C(C)O1 (stereo not given),58µM*,.,.,20%
CCOC(=O)N1CCN(C(=O)CCl)CC1,1.8%,6,20%,-14%
CC(=O)Oc1ccc(/C(C)=N\N2CCN(Cc3ccc(Cl)cc3)CC2)cc1,-0.4%,.,16%,-12%
NS(=O)(=O)c1ccc(CCNC(=O)CSc2ccc3ccccc3c2)cc1,-3.8%,7,0%,1%
CCC(c1nnc(SCC(=O)N2CCOCC2)n1C1CCCCC1)N(C)C (stereo not given),-3.2%,4,4%,38%
CCc1nnc(NC(=O)c2nc(S(=O)(=O)Cc3cccc(C)c3)ncc2Cl)s1,-2.5%,.,?,-7%
O=C(CCNC(=O)c1ccc(Br)cc1)Nc1cccc(S(=O)(=O)N2CCCCCC2)c1,0.3%,.,.,14%
OC(COCc1ccc2c(c1)OCO2)CN1CCCCC1 (stereo not given),-1.2%,7,2%,24%
CCc1ccc(C(=O)CSc2nc(N)cc(=O)[nH]2)cc1,0.4%,.,-6%,-2%
COc1cc(NC(=O)c2sc3ncn(CC(=O)N4CCCC(C)C4)c(=O)c3c2C)cc(OC)c1OC (stereo not given),-0.7%,.,7%,-13%
CN(CCOc1ccc(Cl)cc1)CC(O)c1ccccc1 (stereo not given),4.4%,.,-7%,2%
N#Cc1ccccc1CN1C(=O)NC2(CCCCCC2)C1=O,3.3%,.,3%,-6%
CC(C)CN(C(=O)COC(=O)C1CC1)c1c(N)n(Cc2ccccc2)c(=O)[nH]c1=O,-3.8%,.,.,11%
Cc1ccc2nc(-c3ccco3)c(Nc3ccccc3)n2c1,0.6%,-9,-16%,-2%
COCCNc1nnnc2c1sc1nc(N3CCOCC3)c3c(c12)CCCC3,.,4,-12%,.
O=C(O)CCCCCNC(=O)c1ccccc1,-2.5%,-4,0%,-4%
COCc1cc(C)nc2sc(C(=O)Nc3ccccc3F)c(N)c12,?,.,-65%,?
Cc1cccc(C(=O)NC(=S)NCc2cccnc2)c1,0.2%,-6,-5%,-9%

# Reprinted from the part before: six compounds; new compounds follow.
SMILES,Rango-impB inh,GLA inh pH 4.5,miR-21 reporter,Rango release inh
CC(C)CN(C(=O)COC(=O)C1CC1)c1c(N)n(Cc2ccccc2)c(=O)[nH]c1=O,-3.8%,.,.,11%
Cc1ccc2nc(-c3ccco3)c(Nc3ccccc3)n2c1,0.6%,-9,-16%,-2%
COCCNc1nnnc2c1sc1nc(N3CCOCC3)c3c(c12)CCCC3,.,4,-12%,.
O=C(O)CCCCCNC(=O)c1ccccc1,-2.5%,-4,0%,-4%
COCc1cc(C)nc2sc(C(=O)Nc3ccccc3F)c(N)c12,?,.,-65%,?
Cc1cccc(C(=O)NC(=S)NCc2cccnc2)c1,0.2%,-6,-5%,-9%
CC(C)CC(NC(N)=O)C(=O)NCCc1ccc(Cl)cc1 (stereo not given),0.3%,1,-4%,5%
COc1ccc(S(=O)(=O)N2CCC(C(=O)NCc3ccncc3)CC2)cc1OC,-5.9%,.,7%,0%
COC(=O)C1CCN(Cc2nnc(-c3ccccc3)o2)CC1,1.0%,.,-16%,8%
Cc1ccc(NC(=O)CN(C)C(=O)c2n[nH]c(=O)c3ccccc23)cc1,-2.1%,7,-4%,1%
O=C(CSC1=NCCN1)NC(c1ccccc1)c1ccccc1,-0.8%,-3,23%,-18%
CCOc1ncccc1C(=O)Nc1ncc(C)s1,-0.1%,4,-21%,-2%
O=C(NCc1cccs1)c1ccc(CS(=O)(=O)c2ccc(Cl)cc2)o1,8.7%,-5,4%,4%
COc1ccc(Cl)cc1/C=C(\C#N)C(N)=O,-3.2%,1,0%,12%
O=C(CNC(=O)[C@@H]1Cc2ccccc2CN1)NCc1ccco1,0.1%,.,-1%,-10%
COc1cccc(-n2c(COc3ccc(C)cc3)nnc2SCC(=O)O)c1,?,5,6%,26%
Cc1ccc(S(=O)(=O)N2CCN(C(=O)COC(=O)COc3ccc(Br)cc3)CC2)c(C)c1,-1.3%,.,.,14%
O=C(Nc1ccc2c(c1)OCCO2)c1cc(-c2ccccc2)nc2ccccc12,1.5%,-8,5%,13%
Cn1c(=O)[nH]c(=O)c2c1nc(N1CCN(Cc3ccccc3)CC1)n2CCCc1ccccc1,2.8%,-6,2%,31%
COc1ccc(C)cc1S(=O)(=O)Nc1ccc(F)c(Cl)c1,-0.4%,8,5%,11%
O=C(CC(CC(=O)c1ccc(Br)cc1)c1cccnc1)c1ccc(Br)cc1,-1.2%,5,-4%,-6%
O=C(CN(CC1CCCO1)C(=O)CNS(=O)(=O)c1ccccc1)NCc1ccccc1 (stereo not given),7.1%,-5,-6%,-12%
O=S(=O)(c1cccc(-c2nnc(SCc3nc4ccccc4s3)o2)c1)N1CCOCC1,3.6%,?,-47%,24%
C=CC[C@H](CC(=O)NCCO)C(=O)NCCOC(=O)[C@@H](CC=C)Cc1ccc(F)cc1,-4.7%,.,.,22%
COc1ccc(C2=NCCn3nc4cc(C(F)(F)F)ccc4c32)cc1,-3.2%,.,.,?
O=C(Nc1nnc(-c2ccc(F)cc2)s1)c1c(F)cccc1Cl,5.0%,.,-8%,16%

# Sorted by value in Rango release inh (smallest number first): 5 from the list above
molecule | Rango-impB inh | GLA inh pH 4.5 | miR-21 reporter | Rango release inh
COc1cc(NC(=O)c2sc3ncn(CC(=O)N4CCCC(C)C4)c(=O)c3c2C)cc(OC)c1OC (stereo not given) | -0.7% | . | 7% | -13%
N#Cc1ccccc1CN1C(=O)NC2(CCCCCC2)C1=O | 3.3% | . | 3% | -6%
CN(CC(=O)N1CCc2ccccc21)S(=O)(=O)c1ccc(Br)s1 | -0.4% | -10 | -23% | 1%
O=C(CCNC(=O)c1ccc(Br)cc1)Nc1cccc(S(=O)(=O)N2CCCCCC2)c1 | 0.3% | . | . | 14%
O=C(Nc1nnc(-c2ccc(F)cc2)s1)c1c(F)cccc1Cl | 5.0% | . | -8% | 16%

# Next section.
SMILES,Rango-impB inh,GLA inh pH 4.5,miR-21 reporter,Rango release inh
Cn1cnc(NCc2ccccc2)c1[N+](=O)[O-],-1.6%,-5,4%,-8%
O=C(Nc1ccc2c(c1)Cc1ccccc1-2)c1cc2ccccc2o1,-2.2%,.,.,-11%
O=C(O)c1cccc(C(=O)Nc2cccc(NC(=O)C3CCCO3)c2)c1 (stereo not given),0.1%,-3,-8%,12%
O=c1[nH]nc(-c2ccccc2)c2ccccc12,-1.7%,4,-18%,1%
Nc1nc(SCC(=O)N2CCCc3ccccc32)n(-c2ccccc2)n1,-6.2%,3,-1%,13%
CCOC(=O)C1=C(C)NC(C)=C(C(=O)OCC)C1C(=O)OCC(=O)N1CCC(C)CC1,2.6%&-3.5%,0,-6%,1%&-2%
CCOc1ccccc1N=c1oc2cc(O)ccc2cc1C(=O)NCC1CCCO1 (stereo not given),?,?,-24%,?
CCOc1ccc(-c2cn3ccccc3n2)cc1,4.5%,5,13%,2%
COc1ccc(C(=O)CSc2[nH]c(=O)cc(C(F)(F)F)c2C#N)cc1,?,-5,-38%,?
O=C(CC1(O)C(=O)Nc2cc(Cl)cc(Cl)c21)c1ccncc1 (stereo not given),-0.3%,7,-3%,0%
Cc1cc(C)c(NC(=O)c2sc3nc(C)[nH]c(=O)c3c2C)c(C)c1,.,2,0%,.
Cc1ccc(NC2CCCN(C(=O)CCc3cn[nH]c3)C2)cc1C (stereo not given),1.0%,.,1%,1%
CC(C)(C)NC(=O)C(=O)NNC(=O)c1cccc(Br)c1,3.8%,2[21.1 µM],-32%,1%
O=C(C[C@@H]1C/C=C\C[C@@H](NC(=O)OCC2c3ccccc3-c3ccccc32)C(=O)OCCNC1=O)N[C@@H](CO)Cc1ccccc1,-0.4%,.,.,-22%
O=C(COc1ccc(Br)cc1)NCCCn1ccnc1,-0.6%,.,2%,1%
COc1ccccc1-c1cc(-c2ccc(O)cc2)nc(N)c1C#N,?,.,14%,?
CC12C=CC3(O1)C(C(=O)N(c1cccnc1)C3C(=O)NC1CCCCC1)C2C(=O)Nc1ccccc1 (stereo not given),-0.8%,6,1%,-11%
CSc1nc(O)c(C(c2cccc([N+](=O)[O-])c2)c2c(O)nc(SC)[nH]c2=O)c(=O)[nH]1,0.2%,7,0%,1%
COc1ccccc1CNC(=O)Cn1cccc1C(=O)c1ccccc1,0.0%,.,-39%,18%
Cc1ccc2nc(N(CCN(C)C)C(=O)C3=COCCO3)sc2c1,-0.8%,.,-24%,2%
CCOc1ccc(S(=O)(=O)NC(C)(C)C)cc1-c1nc2c(C(C)(C)C)nn(C)c2c(=O)[nH]1,-0.1%,-10,?,-5%
Cc1cccc(NC(=O)CNC(=O)COC(=O)c2ccco2)c1C,2.4%,.,.,-9%
Cc1cc(C)nc(NS(=O)(=O)c2ccc(N3C(=O)C4CCCCC4C3=O)cc2)n1 (stereo not given),4.6%,.,-2%,11%
CCC(COC(=O)c1ccccc1)Oc1cc(NCc2ccccc2)c2ncn(C(C)C)c2c1 (stereo not given),?,.,.,?
COc1ncnc2c1ncn2CC1COC(C)(C)O1 (stereo not given),2.8%,.,.,0%
CC(=O)C[C@@H](O)CC(=O)[C@@H]1OC(=O)[C@H](C)C/C=C\Cc2ccccc21,1.1%,.,.,20%
CC(=O)Nc1nonc1-c1nc2ccccc2n1CCC#N,0.8%,10,-6%,-5%

# Only part of the results is shown; rates above refer to the full screens.
